Screening data (PubChem BioAssay)
HNF4A DNA FP = change in binding of human HNF4A to DNA, primary screen, biochemical, fluorescence polarization, FITC-DNA; activity change, % at 10 µM; AID 1224865, 2016; 360,000 tested, 0.3% active; Hepatocyte nuclear factor 4-alpha (Homo sapiens), P41235; 1 h; in the data active means activity change above about 30%, passing the limit was not always enough;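 further: controls were the assay level and a saturating level of protein; the project sought stronger binding though the title names inhibitors; some compounds called inactive have numbers as strong as hits; positive values seem to mean higher polarization but the record does not say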
Target sequence (P41235 whole entry, looked up): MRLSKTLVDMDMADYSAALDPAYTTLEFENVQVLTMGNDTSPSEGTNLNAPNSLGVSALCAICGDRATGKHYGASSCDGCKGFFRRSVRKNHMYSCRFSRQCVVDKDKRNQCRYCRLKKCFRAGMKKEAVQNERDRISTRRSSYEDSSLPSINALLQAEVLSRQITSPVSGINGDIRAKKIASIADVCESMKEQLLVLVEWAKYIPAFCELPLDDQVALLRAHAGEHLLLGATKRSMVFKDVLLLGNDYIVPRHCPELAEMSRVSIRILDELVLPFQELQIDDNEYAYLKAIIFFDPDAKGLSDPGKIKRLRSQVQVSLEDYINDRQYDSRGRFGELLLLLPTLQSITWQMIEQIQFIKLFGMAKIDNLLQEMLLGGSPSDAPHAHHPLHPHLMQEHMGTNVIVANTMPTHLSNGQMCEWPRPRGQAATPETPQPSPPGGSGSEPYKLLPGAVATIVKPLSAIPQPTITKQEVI
FGF22 binding = binders of human FGF22 protein, primary screen, FGF22 synaptogenesis inhibitor project, biophysical, thermal shift, single point; Fibroblast growth factor 22 (Homo sapiens), Q9HCT0; recombinant FGF22 thermal shift, SYPRO orange fluorescence; percent of sucrose octasulfate shift, DMSO zero; calls only at 9.99 µM; 340,000 tested, 1.5% active; AID 651658, 2012;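 active means melting point raised past a set limit in the mean and every replicate; inconclusive means no clear call; three in four hits are not shown here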
Target sequence (Q9HCT0 whole entry, looked up): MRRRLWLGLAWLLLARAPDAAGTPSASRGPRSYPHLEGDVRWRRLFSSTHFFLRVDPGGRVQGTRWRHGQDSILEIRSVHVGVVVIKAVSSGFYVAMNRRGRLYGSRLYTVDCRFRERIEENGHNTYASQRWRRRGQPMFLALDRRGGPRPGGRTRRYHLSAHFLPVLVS
Ecoli rRNA inh = reduced GFP signal of wild-type E. coli, primary screen, bacterial rRNA inhibitor project, GFP/RFP fluorescence, OD600, single point. E. coli WT GFP vs humanized-ribosome RFP mutants, 24 h; stronger effect = lower value; DMSO median 0, no signal -100. GFP signal change (wild-type ribosome), % (no concentration beside the values). 350,000 tested, 1.6% active;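 active means significant combined selectivity score with lowered wild-type GFP, culture density cut under 30%, mutant RFP and density less affected; inactive means any of these conditions unmet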; further: one replicate is shown; some compounds called inactive have numbers as strong as hits
AF4-AF9 inh = inhibitors of AF4 peptide binding to AF9, primary screen, biochemical, AlphaScreen, biotin-AF4 peptide, FLAG-AF9, single point; Protein AF-9 (Homo sapiens), P42568; inhibition, % at 10 µM; 350,000 tested, 0.47% active;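 active means every replicate reaching a set inhibition limit, whatever the replicate mean, cut at about 25% in these data; inconclusive means mean inhibition reaches that limit but some replicates miss it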;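 further: 0% = plate neutral control median and 100% = total signal loss; the record names both 10 and 1 µM as test concentration; the first replicate is given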
Vif TR-FRET = inhibitors of Vif binding to APOBEC3G peptide, primary screen, biochemical, TR-FRET, GST-Vif 1-94, biotin-A3G peptide, dose response retest (AID 1117319) | Virion infectivity factor (Human immunodeficiency virus type 1 group M subtype B (isolate … | TR-FRET GST-Vif / biotin-A3G peptide binding; higher % means a stronger effect; test concentration not given here; strong numbers were not always called active | inhibition, %; hits with a dose series show IC50 in µM | 260,000 tested, 0.57% active;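 active means above the screen mean plus three standard deviations and confirmed in dose response; inconclusive means results disagree or hit not tested in dose response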;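 further: Vif residues 1-94 fused to GST binding biotinylated APOBEC3G peptide 110-148; 0% = full assay without inhibitor and 100% = GST in place of GST-Vif; retest series ran down from 100 µM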
ALR inh = inhibitors of human ALR sulfhydryl oxidase, primary screen, biochemical, H2O2 detection, HRP-luminol luminescence, single point; FAD-linked sulfhydryl oxidase ALR (Homo sapiens), P55789; purified ALR, DTT oxidation; inhibition, % (test concentration not listed); 290,000 tested, 3.8% active;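 active means mean and each replicate at 75% or more; inconclusive means only one of the two met; inactive means neither met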;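 further: stock transfer was 7.5 nL into about 7.5 µL; 0% = neutral wells and 100% = wells with inactivated enzyme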
Target sequence (P55789 whole entry, looked up): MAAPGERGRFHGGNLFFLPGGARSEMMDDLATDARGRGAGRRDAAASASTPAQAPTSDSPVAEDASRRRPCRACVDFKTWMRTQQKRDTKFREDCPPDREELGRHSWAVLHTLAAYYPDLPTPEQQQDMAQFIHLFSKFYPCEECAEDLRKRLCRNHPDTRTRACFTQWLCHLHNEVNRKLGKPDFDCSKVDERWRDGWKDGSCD
E coli growth = E. coli growth inhibition, primary screen, OD600; Escherichia coli growth, 23 h; stronger effect = lower value; OD600 absorbance (no concentration beside the values); 330,000 tested, 0.21% active; AID 1053175, 2014;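 active means OD600 absorbance below the run mean of sample wells minus 3.6 SD, in any replicate, cut at about 0.56 in these data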;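 further: stock transfer was 300 nL into about 60 µL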
Ecoli rRNA inh OD600 = also measured in Ecoli rRNA inh; calls as there; OD600 change, %; measured here: OD600 growth;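 optical density of the mix in the first replicate; 0 = DMSO median and -100 = no signal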
Ecoli rRNA inh RFP = also measured in Ecoli rRNA inh; calls as there; RFP signal change, %; measured here: RFP humanized mutant strains;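 first replicate; 0 = DMSO median and -100 = no signal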
* = called active by the depositor; i = inactive; ? = inconclusive; . = not tested or not shown; & = joins results of further samples.

canonical_smiles | HNF4A DNA FP | FGF22 binding | Ecoli rRNA inh | Ecoli rRNA inh OD600 | Ecoli rRNA inh RFP | AF4-AF9 inh | Vif TR-FRET | ALR inh | E coli growth
CC(C)(C)c1ccc(Oc2ccc(NC(=O)CCCC(=O)O)cn2)cc1 | -1.7 | i | 1 | 2 | -2.2 | 2.6 | 7% | 91* | 0.67
COC(=O)c1sccc1NC(=O)c1ccc(OC)cc1OC | 7.6 | . | . | . | . | . | 15% | -2 | 0.67
Cc1ccc(C(=O)Nc2ccc(Br)c(C(F)(F)F)c2)cc1 | -6.7 | . | . | . | . | . | 0% | -28 | 0.69
CCOc1ccc(N2C(=O)CC(N3CCN(c4ccc(F)cc4)CC3)C2=O)cc1 (centres undefined) | 0.3 | i | 9 | 12 | 3.9 | 0.8 | 2% | -11 | 0.65
Cc1ccc(NC(=O)Nc2cc(S(C)(=O)=O)ccc2Cl)cc1 | 16 | i | -20 | -13 | -6.4 | 5.5 | -36% | -1 | 0.73
COc1ccc(C2C(C(=O)Nc3cccc(C)n3)c3ccccc3C(=O)N2C)cc1OC (centres undefined) | 1.6 | . | . | . | . | . | 3% | 15 | 0.69
COc1ccc(OC)c(COC(=O)c2cccc(S(=O)(=O)N3CCCCC3)c2)c1 | 4.7 | i | 2 | -1 | 13 | 1.8 | . | -1 | 0.7
O=C(Nc1ccc(CN2CCS(=O)(=O)CC2)cc1)c1ccc(C(F)(F)F)cc1 | -2.7 | i | . | . | . | 1.1 | . | -12 | 0.68
O=C(COC(=O)c1cccc(S(=O)(=O)N2CCOCC2)c1)NCc1ccc2c(c1)OCO2 | 2.9 | . | 1 | -1 | 1.0 | 1.0 | -7% | -23 | 0.69
CC(=O)CSc1nc(N(C)C)nc(N(C)C)n1 | -1.8 | i | 6 | -4 | 2.4 | -1.7 | -9% | -5 | 0.69
CCC(=O)N(C)C[C@@H]1Oc2ncc(C3=CCCC3)cc2C(=O)N([C@@H](C)CO)C[C@@H]1C | . | i | 2 | 4 | -1.1 | -4.3 | . | . | .
CC(=O)N1[C@@H]2c3ccc(-c4ccc(F)cc4)c(=O)n3C[C@H]1[C@H](CO)[C@H]2C(=O)N(C)C | . | i | 4 | 7 | -0.7 | -1.2 | . | . | .
COc1ccc(/C=C/C(=O)N2CCN(c3ccccn3)CC2)cc1OC | -2.8 | . | -15 | -15 | -2.7 | 2.0 | 1% | -7 | 0.69
Cc1cc(C)cc(OCC(O)CN2CCC(CN3C(=O)c4cccc5cccc(c45)C3=O)CC2)c1 (centres undefined) | -0.7 | i | -55 | -80 | -31 | 30* | . | -6 | 0.64
CN(CC(=O)Nc1cccc(F)c1)C(=O)CCCc1cccs1 | 1.7 | i | -2 | 4 | -4.4 | -11 | . | -2 | 0.71
CC(=O)NC(C)c1cc(Cl)c2ccccc2c1O (centres undefined) | 1.4 | i | 21 | -38 | -21 | 1.7 | . | -3 | 0.66
O=C(COc1ccc(Oc2ccccc2)cc1)NC1CCS(=O)(=O)C1 (centres undefined) | 1.8 | i | 2 | -7 | 0.1 | 0.7 | -5% | -4 | 0.72
CO[C@@H]1CN(C)C(=O)c2ccc(NC(=O)C3CCC3)cc2OC[C@@H](C)N(Cc2ccncc2)C[C@@H]1C | . | i | -8 | -8 | -0.6 | 0.9 | . | . | .
O=C(NC1CCCC1)c1sc(=S)n2c1[nH]c(=O)c1ccccc12 | -5.2 | . | . | . | . | . | 4% | 55 | 0.68
CC1CCc2c(sc(NC(=O)C(=O)NCc3ccco3)c2C#N)C1 (centres undefined) | 0.4 | . | 5 | 14 | -2.0 | . | 8% | 25 | 0.71
CC(C)OCCCNc1nc(-c2ccccc2)nc2ccccc12 | -0.4 | i | -43 | -72 | -15 | -9.2 | . | 38 | 0.66
Cc1ccc(C(=O)NC(=O)CSc2nnc(C)s2)cc1 | -1.4 | i | 8 | 4 | -0.3 | 0.0 | 0% | 16 | 0.73
CCOC(=O)C1(CC2CC2)CCN(Cc2ccc(C(=O)OC)cc2)CC1 | 5.8 | i | 6 | 4 | -5.1 | 1.6 | 20% | -8 | 0.69
COc1cccc(S(=O)(=O)N(C)C[C@H]2OCc3cnnn3CCCC(=O)N([C@@H](C)CO)C[C@@H]2C)c1 | 3.8 | i | 2 | 2 | 2.5 | 0.2&-0.8 | 0% | . | .
Cc1occc(=O)c1OCc1ccccc1 | 1.5 | i | 18 | 10 | -0.2 | -0.3 | 0% | -6 | 0.68
Nc1cnc(CNc2ccccc2Cl)cn1 | 1.5 | i | 3 | 14 | -1.4 | 1.4 | . | 30 | 0.66
CC1(C)CC(=O)C(C(O)c2ccccc2)C(C)(C)N1 (centres undefined) | -0.8 | i | 13 | 17 | -0.7 | 0.8 | -10% | -5 | 0.67
CC(=O)N1N=C(c2ccc(Br)cc2)OC12CCCC2 | 0.4 | i | . | . | . | -5.1 | -18% | -6 | 0.65
CN1CCN(C(=S)Nc2ccc(S(N)(=O)=O)cc2)CC1 | 6.8 | i | 11 | 11 | 0.5 | -3.0 | -5% | -1 | 0.64
Oc1ccc(-n2nnnc2SCc2ccccc2Br)cc1 | 0.9 | . | . | . | . | . | -2% | 25 | 0.68
Cc1ccc(/C=N/Nc2ccc(C(=O)O)cc2)o1 | -3.4 | i | 9 | 9 | -1.6 | 0.3 | ? | 98* | .
C[C@H]1CN([C@@H](C)CO)C(=O)c2cc(NC(=O)Nc3ccc(C(F)(F)F)cc3)ccc2O[C@@H]1CN(C)S(=O)(=O)c1ccc(F)cc1 | . | i | 3 | 6 | 2.2 | 0.1 | . | . | .
CCCCCCCNC(=O)C1(CC2CC(c3cccc(Br)c3)=NO2)CCN(C(=O)c2ccccc2)CC1 (centres undefined) | -2.6 | i | 2 | 1 | -2.6 | -3.4 | . | 4 | 0.62
N#C/C(=C\c1cccnc1)C(=O)Nc1cccc(Cl)c1 | 4.6 | i | -16 | 17 | 15 | -0.9 | -9% | 88* | 0.71
O=C(c1cc(S(=O)(=O)N2CCOCC2)ccc1Cl)N1CCN(c2ccccn2)CC1 | -1.5 | i | 5 | 1 | -0.2 | 0.6 | . | . | 0.65
C[C@H](CO)N1C[C@H](C)[C@@H](CN(C)Cc2ccc3c(c2)OCO3)Oc2ccc(NC(=O)CCC(F)(F)F)cc2C1=O | . | i | 0 | 2 | 0.2 | -2.3 | . | . | .
CN1C(C(=O)NCc2ccccc2)CC2Cn3c(nc4cc5ccccc5cc43)C21 (centres undefined) | -4.4 | i | -2 | -7 | 4.4 | 0.5 | 3% | . | 0.68
O=C(NCc1cccnc1)Nc1ccccc1C(F)(F)F | 0.3 | i | 16 | 5 | -0.9 | -0.2 | . | -6 | 0.68
CCOc1ccccc1N(CC)C(=O)c1cc2c(s1)-c1ccccc1S(=O)(=O)C2 | -0.6 | i | 1 | 0 | -7.1 | 1.9 | . | . | .
O=C(N[C@@H]1C=C[C@H](CC(=O)N2CCOCC2)O[C@H]1CO)c1ccccn1 | . | i | 4 | 4 | 0.3 | -0.5 | . | . | .
S=C(Nc1ccc(Cl)cc1)Nc1ccc2c(c1)OCCO2 | -0.9 | i | -27 | -36 | 4.3 | 2.7 | 10% | -6 | 0.65
CCCN(CCC)C(=O)CC(c1ccc(F)cc1)c1ccco1 (centres undefined) | -1.7 | . | . | . | . | . | 14% | 8 | 0.74
CN1CCN(C(=S)NC(=O)c2cccc(S(=O)(=O)N(C)C)c2)CC1 | 2.5 | i | 16 | 2 | -1.1 | -3.4 | 10% | 18 | 0.69
Cc1nc(NC(=O)CN2CC(C)OC(C)C2)sc1C(=O)N(C)C (centres undefined) | -1.0 | i | 7 | 5 | 0.9 | -2.3 | -6% | -20 | 0.66
Cc1ccc(C(=O)Cc2nnc(C)s2)cc1 | -2.5 | . | . | . | . | . | . | 1 | 0.69
Cc1noc(C)c1-c1ccc(C(=O)NCCC(F)(F)F)c2occc12 | 8.2 | i | -2 | -14 | -8.0 | -1.2 | . | . | .
COc1nc(-c2ccc(C)cc2)ccc1-c1noc(-c2cccnc2)n1 | 11 | . | . | . | . | . | . | -9 | 0.81
CC(/C=N/NC(=O)Cc1cccn1C)=C\c1ccco1 | 2.0 | . | . | . | . | . | ? | -8 | .
CCCCCOc1ccccc1C(=O)NCCCCCC(=O)O | 0.8 | i | -8 | -8 | 7.0 | -4.7 | -17% | -3 | 0.69
CN(C)CC(=O)N[C@@H]1CC[C@H](CCn2cc(C3CC3)nn2)O[C@H]1CO | . | i | 1 | 13 | -1.2 | -1.1 | . | . | .

More results:
canonical_smiles | HNF4A DNA FP | FGF22 binding | Ecoli rRNA inh | Ecoli rRNA inh OD600 | Ecoli rRNA inh RFP | AF4-AF9 inh | Vif TR-FRET | ALR inh | E coli growth
C[C@H]1CN([C@@H](C)CO)S(=O)(=O)c2ccc(-c3ccncc3)cc2O[C@H]1CN(C)C | . | i | 2 | 9 | -1.4 | -2.7 | . | . | .
CC(CNC(=O)CN(C)CC(=O)Nc1ccccc1Br)c1ccccc1 (centres undefined) | -3.2 | i | -1 | -6 | -2.1 | -3.7 | -4% | . | 0.63
C[C@@H]1CN([C@@H](C)CO)C(=O)CCCn2cc(nn2)CO[C@@H]1CN(C)S(=O)(=O)c1cn(C)cn1 | . | i | 1 | 1 | -0.2 | -1.7 | . | . | .
CSc1cc(-c2ccc(Cl)cc2)c(C(=O)NN)s1 | 1.2 | . | . | . | . | . | 7% | 0 | 0.73
COCCSc1nnc(NC(=O)Cc2ccccc2OC)s1 | 0.4 | . | . | . | . | . | 73% | -6 | 0.71
Cc1c(C(=O)C(=O)N2c3ccc(F)cc3CCC2C)c2ccccc2n1C (centres undefined) | 1.2 | . | . | . | . | . | . | 9 | 0.69
COc1cccc(Oc2coc3c(CN4CCOCC4)c(O)ccc3c2=O)c1 | -0.8 | . | . | . | . | . | 10% | 4 | 0.71
COc1cc(NC(=O)c2sc3ncn(CC(=O)N4CCCC(C)C4)c(=O)c3c2C)cc(OC)c1OC (centres undefined) | 2.8 | i | 2 | 0 | 0.5 | 5.2 | 6% | -4 | 0.68
O=c1[nH]c(=O)c2[nH]c(=S)n(-c3ccccc3)c2[nH]1 | 1.1 | i | 5 | 12 | -1.2 | 8.4 | -1% | . | 0.67
CCC(C)C(NC(=O)OC(C)(C)C)C(=O)NC(C(=O)NC(C)C(N)=O)C(C)C (centres undefined) | 2.0 | i | 0 | 8 | -0.3 | 0.2 | -4% | -7 | 0.62

Two of the compounds above, with two lines to a compound.
Every second line gives: HNF4A DNA FP, FGF22 binding, Ecoli rRNA inh, Ecoli rRNA inh OD600, Ecoli rRNA inh RFP, AF4-AF9 inh, Vif TR-FRET, ALR inh, E coli growth
Cc1ccc(C(=O)NC(=O)CSc2nnc(C)s2)cc1
    -1.4, i, 8, 4, -0.3, 0.0, 0%, 16, 0.73
CN1CCN(C(=S)NC(=O)c2cccc(S(=O)(=O)N(C)C)c2)CC1
    2.5, i, 16, 2, -1.1, -3.4, 10%, 18, 0.69

Not all compounds are listed. The share of hits here may be higher or lower than overall.
